# Rango complex inh = Rango-importin beta binding inhibition; Q14974; Rango CFP/YFP FRET sensor + importin beta, 45 min; Potency, µM (series often up to 92.2 µM), without a hit: at the top dose inhibition of complex formation; 0.031% of 340,000 active; AID 540263; active = rising FRET ratio curve, often small or poorly fitted; inconclusive = mostly compound fluorescence or quenching in the first reads; inactive = flat curves in all reads;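 also: potency is read from the fitted curve at half-maximal effect; 0% = DMSO wells and 100% = buffer wells lacking importin beta; nearly all actives have a fitted effect of over 15% in size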
# Target sequence (Q14974 whole entry, looked up): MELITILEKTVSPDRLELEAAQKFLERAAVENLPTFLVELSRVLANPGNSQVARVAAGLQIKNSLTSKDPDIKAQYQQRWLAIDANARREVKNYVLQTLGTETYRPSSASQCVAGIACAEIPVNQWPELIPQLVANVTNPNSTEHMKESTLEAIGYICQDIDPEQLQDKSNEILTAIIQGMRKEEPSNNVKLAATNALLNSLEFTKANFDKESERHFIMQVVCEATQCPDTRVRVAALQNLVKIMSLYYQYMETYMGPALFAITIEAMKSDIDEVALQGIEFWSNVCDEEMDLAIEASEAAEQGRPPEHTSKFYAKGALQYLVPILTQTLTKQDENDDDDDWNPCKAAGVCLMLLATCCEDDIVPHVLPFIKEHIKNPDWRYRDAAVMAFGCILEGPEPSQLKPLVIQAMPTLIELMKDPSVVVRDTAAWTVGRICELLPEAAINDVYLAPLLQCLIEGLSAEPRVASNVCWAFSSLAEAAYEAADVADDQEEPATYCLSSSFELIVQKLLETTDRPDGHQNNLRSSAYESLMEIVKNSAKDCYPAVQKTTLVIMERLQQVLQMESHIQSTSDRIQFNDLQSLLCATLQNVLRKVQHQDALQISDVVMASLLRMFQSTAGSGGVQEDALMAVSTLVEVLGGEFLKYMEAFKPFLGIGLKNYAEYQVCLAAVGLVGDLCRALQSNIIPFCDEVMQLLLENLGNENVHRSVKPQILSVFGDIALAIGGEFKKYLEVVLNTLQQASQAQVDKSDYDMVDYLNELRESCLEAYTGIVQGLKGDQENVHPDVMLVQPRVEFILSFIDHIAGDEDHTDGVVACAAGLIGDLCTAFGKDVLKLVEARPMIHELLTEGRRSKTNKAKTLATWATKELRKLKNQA
#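 FRET biosensor Rango (snurportin 1 IBB between N-terminal EYFP and C-terminal Cerulean), 50 nM in PBS/1 mM DTT/0.02% Tween-20/0.1% BSA, preincubated 5 min RT with compound; 0.125 microM importin beta added, 45 min RT, CFP/YFP FRET ratio read.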
# GLA inh pH 4.5 = inhibitors of human alpha-galactosidase A at pH 4.5 | purified enzyme, 4-MU-alpha-Gal fluorescence, pH 4.5 | AID 1467 | 230,000 tested, under 10 active | P06280 | activity change, negative = inhibition, % at 105 µM; inconclusive = small, poorly fitted or top-dose-only inhibition, or a rising curve; inactive = flat fitted curve, though single readings scatter; no compound was filed as active;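 also: 0% = full activity with enzyme and -100% = basal without enzyme; dose as in the result columns while the protocol names 77 µM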
# miR-21 reporter = raises the signal of a miR-21 reporter; AID 2288; 340,000 tested, under 10 active; Potency, µM (doses to about 38.3 µM), for the others: top-dose reporter change, positive = more light; HeLa miR-21 FLuc reporter, luciferase, 48 h; active = well fitted rising curve with a large enough effect; inconclusive = small, poorly fitted or top-dose-only effect; inactive = no such curve, though single readings can be large or run the other way;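 also: % of control where 0% means no effect; miR-21 action dims this reporter so a rising signal means less miR-21 action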
#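 HeLa cells stably expressing CMV-driven firefly luciferase with a downstream miR-21 binding sequence, endogenously expressing miR-21, were treated with titrations (up to about 40uM final) for 48 hours at 37 degree Celsius. Luciferase luminescence was read after lysis.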
# Rango dissoc inh = prevents RanGTP from dissociating the Rango-importin beta complex. Biochemical FRET Rango-importin beta, RanGTP-induced dissociation. Potency, µM (highest dose often 46.1 µM), for the others: at the highest dose activity change, negative = inhibition. 0.071% of 340,000 active. AID 540253; active means falling FRET ratio curve, often poorly fitted, with flat reads before Ran was added; inconclusive means other falling curves, or compound fluorescence or quenching; inactive means flat or rising ratio curve;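 also: potency is read from the fitted curve at half-maximal effect; % of control where 0% means no effect; nearly all actives have a fitted effect of over 45% in size; -100% = wells without RanGTP and RCC1; the record marks most hits as doubtful in a second field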
#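 Recombinant Rango FRET biosensor (EYFP–snurportin 1 IBB–cerulean CFP10) at 0.1 uM premixed with 0.25 uM importin beta in PBS, 1 mM DTT, 0.02% Tween-20, 0.1% BSA. Compound added 5 min; RanGTP-RCC1 (0.6 uM Ran, 2 mM GTP, 0.2 uM RCC1) then triggers release, read at 45 min.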
# An asterisk follows results filed as active; ? = inconclusive; . = no result given; & = joins results of further samples. An excerpt; the hit share may differ from the screen's.
GLA inh pH 4.5,Rango dissoc inh,Rango complex inh,miR-21 reporter,smiles
.,-15%,-1.7%,6%,O=C(Nc1cccc(OCC(=O)N2CCOCC2)c1)c1ccc(C(F)(F)F)cc1
-19,-15%,-4.0%,-4%,Cc1[nH]n(-c2ccccc2)c(=O)c1/C=N/c1nn[nH]n1
-7,6%,-0.5%,-7%,COc1cccc(C2CC(c3ccccc3Cl)n3ncnc3N2)c1 (stereo not given)
4,2%,1.3%,4%,CN(C)C(=N)c1n[nH]nc1SCc1ccc(Cl)c(Cl)c1
.,-5%,0.2%,-10%,Cc1cccc(/C=N/NC(=O)c2cccc(Cl)c2)n1
2,-10%,1.2%,-25%,COc1cc(NC(=S)NC(=O)c2ccco2)ccc1NC(=O)C(C)C
.,-14%,-5.7%,-2%,O=C(NCC1CCCO1)c1cccc(S(=O)(=O)N2CCOCC2)c1 (stereo not given)
-7,1%,-0.6%,-9%,CCc1cccc(NC(=O)CCc2nc(-c3cccs3)no2)c1
.,0%,-0.9%,-56%,CCCc1cc(=O)oc2cc(OCc3ccc(C(=O)O)cc3)ccc12
.,-12%,1.6%,.,COc1ccc(CCNc2cc(N3CCN(C(=O)c4ccccc4OC)CC3)ccc2[N+](=O)[O-])cc1OC
.,-12%,-3.8%,.,Cc1cc(C)n2nc(C(=O)OCC(=O)Nc3ccc4c(c3)OCCO4)nc2n1
-5,-3%,?,0%,COc1ccc(S(=O)(=O)Nc2ccncc2)c(C)c1C

# The list goes on:
GLA inh pH 4.5,Rango dissoc inh,Rango complex inh,miR-21 reporter,smiles
3,0%,-2.6%,-8%,CCOC(=O)N1CCN(C(=O)C2c3cc(OC)c(OC)cc3C(=O)N3CCc4ccccc4C23)CC1 (stereo not given)
-3,?,?,-4%,Cc1ccc(S(=O)(=O)C(C#N)c2nc3ccccc3nc2N2CC(C)OC(C)C2)cc1C (stereo not given)
-1,.,.,-2%,COC(=O)c1ccccc1NC(=O)CN1CCC(n2nnc3cc(C)ccc32)CC1
3,13%,5.0%,-3%,O=C(O)c1cnn2c(C(F)F)cc(C(F)F)nc12
.,-8%,0.7%,1%,COCCN1C(=O)C(=O)/C(=C(/O)c2ccc(S(=O)(=O)N3CCOCC3)cc2)C1c1cccc(OC)c1 (stereo not given)
.,19%,1.0%,-4%,CCc1cc(CNC(=O)C2CCC(=O)N(CCc3cccc(F)c3)C2)on1 (stereo not given)
-1,.,.,12%,O=C(O)C[C@@H]1C(=O)O[C@@H]2C(COC(=O)c3cc(O)c(O)c(O)c3)O[C@@H](OC(=O)c3cc(O)c(O)c(O)c3)[C@@H](OC(=O)c3cc(O)c(O)c4c3[C@H]1[C@H](O)C(=O)O4)[C@H]2OC(=O)c1cc(O)c(O)c(O)c1 (stereo not given in full)
-7,4%,1.1%,-2%,COc1cc(C)c(Cl)c(C)c1S(=O)(=O)NCc1ccc2c(c1)OCO2
.,-4%,-1.7%,-3%,CCn1c(CNC(=O)c2cccc(C)c2)nnc1SCC(=O)N1CCOCC1
-7,1%,-0.3%,-10%,Cc1cc(C)n(CCOc2ccc(Cl)cc2Cl)n1
4,-4%,0.5%,-6%,CN(Cc1ccccc1)CC(O)COc1ccc(CNCCc2cccnc2)cc1 (stereo not given)
-1,11%,-0.8%,-5%,CCOC(=O)/C=C1\NC(=O)C(C)S1 (stereo not given)

# Ordered by SMILES length (highest first): some entries from above
GLA inh pH 4.5,Rango dissoc inh,Rango complex inh,miR-21 reporter,smiles
-1,.,.,12%,O=C(O)C[C@@H]1C(=O)O[C@@H]2C(COC(=O)c3cc(O)c(O)c(O)c3)O[C@@H](OC(=O)c3cc(O)c(O)c(O)c3)[C@@H](OC(=O)c3cc(O)c(O)c4c3[C@H]1[C@H](O)C(=O)O4)[C@H]2OC(=O)c1cc(O)c(O)c(O)c1 (stereo not given in full)
.,-8%,0.7%,1%,COCCN1C(=O)C(=O)/C(=C(/O)c2ccc(S(=O)(=O)N3CCOCC3)cc2)C1c1cccc(OC)c1 (stereo not given)
-1,.,.,-2%,COC(=O)c1ccccc1NC(=O)CN1CCC(n2nnc3cc(C)ccc32)CC1
.,19%,1.0%,-4%,CCc1cc(CNC(=O)C2CCC(=O)N(CCc3cccc(F)c3)C2)on1 (stereo not given)
-7,1%,-0.3%,-10%,Cc1cc(C)n(CCOc2ccc(Cl)cc2Cl)n1
-1,11%,-0.8%,-5%,CCOC(=O)/C=C1\NC(=O)C(C)S1 (stereo not given)

# Other records follow:
GLA inh pH 4.5,Rango dissoc inh,Rango complex inh,miR-21 reporter,smiles
.,6%,5.1%,.,Cc1ccc2nc(-c3ccccc3)cc(C(=O)N3CCN(S(=O)(=O)c4c(C)noc4C)CC3)c2c1
.,1%,-0.3%,.,COc1ccc(N2CCN(C(=O)COC(=O)CNC(=O)c3ccc(C)cc3)CC2)cc1
-8,1%,2.0%,-2%,COCCn1c(=O)sc2ccccc2c1=O
11,-13%,0.3%,-10%,Cc1ccccc1NC(=S)NC(=O)c1cncc(Br)c1
11,11%,-3.2%,-57%,CCn1ncc(C(=O)Nc2cccc(Cl)c2)c1C
6,2%,-3.3%,-4%,COc1cccc(/C=N/NC(=O)CCn2c3ccccc3c3ccccc32)c1
-4,7%,2.7%,1%,COc1ccc2ccccc2c1CNC(=O)CC1C(=O)NCCN1CC(C)(C)C (stereo not given)
.,18%,-0.4%,-12%,COc1ccc(NC(=S)NC(=O)/C=C/c2ccccc2)cc1
.,28%,?,.,COc1cccc(NC(=O)CN(C)CC(=O)NCC(=O)Nc2ccc(F)cc2)c1
4,0%,0.0%,-14%,COc1ccc(OC)c(S(=O)(=O)N2C(C)CCCC2C)c1 (stereo not given)
.,-5%,1.9%,-1%,CCOCCCN(C)C1CCN(C(=O)c2oc3ccccc3c2NC(=O)c2ccc([N+](=O)[O-])cc2)CC1
-2,0%,2.7%,0%,CCN(CC)Cc1ccc(NC(=O)c2sc3cc(Cl)ccc3c2Cl)cc1

# New compounds follow:
GLA inh pH 4.5,Rango dissoc inh,Rango complex inh,miR-21 reporter,smiles
3,-18%,-2.2%,-8%,Cn1cc(/C=C/c2nc3ccccc3c(=O)n2-c2cccc([N+](=O)[O-])c2)c2ccccc21
-14,3%,?,-19%,COc1cccc(-c2noc(CCC(=O)Nc3cccnc3)n2)c1
.,-14%,1.1%,-6%,Cn1c(=O)[nH]c(=O)c2c1nc(NC1CCCC1)n2Cc1ccccc1
-6,-22%,?,-2%,O=C(CC1S/C(=N/N=C/c2cccs2)NC1=O)Nc1ccccc1F (stereo not given)
.,-6%,-1.9%,-21%,CCc1ccc(N(CC(=O)NCc2ccc3c(c2)OCO3)C(=O)c2csnn2)cc1
5,-1%,6.8%,7%,COC(=O)NC(=S)Nc1ccc(Oc2ccc(Cl)cc2)c(Cl)c1
.,10%,-1.1%,.,COc1ccc(S(=O)(=O)N2CCCCCC2)cc1C(=O)Nc1ccc(C(=O)N(C)C)cc1
.,-1%,-5.3%,4%,Cc1cccc(OCC(=O)Nc2ccncc2)c1C
.,-3%,-1.1%,0%,CC(=O)Nc1ccc(S(=O)(=O)Nc2nccc(C)n2)cc1
9,3%,-3.6%,1%,CC(Oc1cccc(Cl)c1)c1ccnc2nc(/N=C/N(C)C)nn12 (stereo not given)
2,-3%,-0.2%,-6%,COc1ccc(N2CCN(C(=O)c3ccc(-n4nc(C)cc4C)cc3)CC2)cc1
-3,-14%,0.1%,-70%,COc1cc(/C=N/O)ccc1OCc1ccc([N+](=O)[O-])cc1

# Single records, as listed above. Order of screens: GLA inh pH 4.5 | Rango dissoc inh | Rango complex inh | miR-21 reporter
# Entry for Cn1cc(/C=C/c2nc3ccccc3c(=O)n2-c2cccc([N+](=O)[O-])c2)c2ccccc21 : 3 | -18% | -2.2% | -8%
# Entry for CC(Oc1cccc(Cl)c1)c1ccnc2nc(/N=C/N(C)C)nn12 (stereo not given) : 9 | 3% | -3.6% | 1%

# Following part.
GLA inh pH 4.5,Rango dissoc inh,Rango complex inh,miR-21 reporter,smiles
.,0%,0.8%,-5%,CC1c2[nH]c3ccccc3c2C[C@H]2C(=O)N(CCCN(C)C)CC(=O)N12 (stereo not given in full)
.,-18%,-0.4%,-4%,O=C(CN(Cc1ccccc1)C(=O)CCC(=O)Nc1ccccn1)NCCc1ccccc1
.,-5%,2.2%,.,CSCCC(NS(=O)(=O)c1ccccc1F)C(=O)NCC(c1ccco1)N(C)C (stereo not given)
-4,3%,-1.8%,-1%,CCOc1cc(C(=O)Nc2cc(C)on2)cc(OCC)c1OCC
.,14%,-0.5%,.,Cn1c(=O)c2c(nc(CN3CCN(c4ccccc4)CC3)n2CCc2ccccc2)n(C)c1=O
-10,-5%,-1.9%,7%,O=C(CCNC(=O)c1ccccc1Cl)Nc1cc(S(=O)(=O)N2CCOCC2)ccc1N1CCCC1
.,0%,0.3%,.,COc1ccc(OCC(=O)Nc2cccc(S(=O)(=O)N(C)c3ccccc3)c2)c([N+](=O)[O-])c1
2,-5%,-1.3%,-31%,CC(C)Oc1ccc(-c2cc(C(=O)NCCN3CCOCC3)c3ccccc3n2)cc1
.,11%,8.5%,-6%,COc1ccccc1/C=C/C(=O)NCC(=O)N=Nc1c(O)[nH]c2ccccc12
1,-10%,0.8%,3%,CCOC(=O)c1cc(C#N)c(SCC(=O)OC)[nH]c1=O
-7,7%,2.9%,-54%,CC(=C/c1ccc(C(C)C)cc1)/C=N/NC(=O)CSc1ccccn1
.,-4%,-2.4%,2%,COc1ccc(-n2c(SCC(=O)C(C)(C)C)nc3c(sc(=S)n3-c3ccccc3)c2=O)c(OC)c1

# (cont.)
GLA inh pH 4.5,Rango dissoc inh,Rango complex inh,miR-21 reporter,smiles
11,3%,-0.9%,-1%,Cn1cnnc1SC1CCCCC1NS(=O)(=O)c1ccccc1 (stereo not given)
3,-18%,0.7%,-7%,COC(=O)c1nc2ccccc2s1
0,1%,2.1%,-32%,CCCc1cc2c(=O)c(-c3ccc4c(c3)OCCO4)coc2cc1OS(C)(=O)=O
.,-9%,-2.0%,.,Cc1csc(NC(=O)CN2C(=O)COc3ccc(Cl)cc32)n1
.,3%,-1.4%,-12%,O=C(O)c1ccccc1NCc1ccsc1
-5,6%,-0.5%,9%,COc1cccc(-c2nnc(NC(=O)c3ccc(S(=O)(=O)N4CC(C)OC(C)C4)cc3)o2)c1 (stereo not given)
1,4%,-1.4%,-6%,CN(Cc1ccco1)C(=O)C1CCC(=O)N1Cc1ccc(F)cc1 (stereo not given)
.,14%,0.9%,-1%,O=C(NC1CC1)C1CCN(c2ncccn2)CC1
.,19%,3.2%,.,CC1CC(C)CN(C(=O)C(Cc2ccccc2)NC(=O)c2ccccc2)C1 (stereo not given)
11,9%,5.4%,1%,CCOC(=O)C[N+](C)(C)CCOC1CC2CCC1(C)C2(C)C (stereo not given)
-2,12%,-0.8%,-1%,Cc1ccccc1NC(=O)CSc1n[nH]c(-c2ccco2)n1
.,-2%,0.5%,0%,Cc1ccc(NC(=O)CN2C(=O)S/C(=C\c3ccccn3)C2=O)cc1C

# (cont.)
GLA inh pH 4.5,Rango dissoc inh,Rango complex inh,miR-21 reporter,smiles
.,8%,2.9%,7%&24%,Cc1ccc(-c2ccc(=O)n(Cc3cc(C)ccc3C)n2)cc1
.,-2%,-0.6%,9%,CCN(C(=O)c1c(-c2ccccc2Cl)noc1C)C1CCCCC1
-2,-1%,0.8%,-22%,CCCCC(=O)Nc1ccc(C(=O)Nc2ccc(S(=O)(=O)Nc3ccc(C)cc3)cc2)cc1
.,16%,0.6%,-13%,CCN1CCN(CCC(=O)Nc2ccccc2)CC1
.,-4%,3.8%,-4%,CCOC(=O)c1ccccc1NC(=O)C1CCCO1 (stereo not given)
.,7%,?,.,O=C(COC(=O)c1ccccc1SCC(=O)N1CCCC1)Nc1ccc(OC(F)F)cc1
1,10%,-1.7%,-3%,CCOC(=O)C1(Cc2cccc(F)c2)CCN(C2CCOCC2)CC1
-6,-28%,?,-1%,COc1ccc(CC(=O)NNC2=Nc3cccc4cccc2c34)cc1
-6,14%,1.1%,-1%,Cc1ccc(S(=O)(=O)N(C)C)cc1NC(=O)COC(=O)/C(=C/c1ccc(F)cc1)c1cccs1
